High-throughput results (PubChem BioAssay)
BJeLR viability: BJeLR cell viability loss; BJeLR (HRASV12) viability, CellTiter-Glo ATP luminescence, 48 h; reference of the scale not given here; inhibition, % (concentration not given with the values); hit rate 0.17% among 300,000; AID 1554;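 active = replicate mean above 50%; inconclusive = above 50% but judged a plate artefact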;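 note: 50 nL library stock added to about 25 µL; numbers are from one replicate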
Mtb hypoxia rep: reduces hypoxia-regulated biosensor signal in M. tuberculosis | M. tuberculosis hypoxia-regulated fluorescent reporter, fluorescence | fluorescence inhibition, % (no concentration beside the values) | hit rate 0.1% among 300,000;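 active = 35 to 45% if threefold the growth effect, above 45% if 1.5-fold the growth effect; inactive = the rest, general growth blockers included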;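 note: wells of about 50 µL received 100 nL stock; 0% = vehicle wells and 100% = reference inhibitor wells; whole bacteria with a GFP reporter of the hypoxia response; strong numbers were not always called active; many hits fall short of the cut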
Sa ugtP lethal: growth inhibition of S. aureus ugtP deletion strain. AID 1259309. growth inhibition, % (concentration not given with the values). S. aureus RN4220 ugtP deletion, OD600 growth, 16 h; some inactives read as strong as hits. hit rate 0.54% among 330,000;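 active = z-score under -3 and OD600 up to 0.15 on both plates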;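 note: plate controls were untreated wells for no effect and antibiotic for full effect; wells of about 80 µL received 100 nL stock; the first replicate is given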
Sa RN4220 lethal: kills Staphylococcus aureus RN4220. S. aureus RN4220 growth, OD600, 16 h. inhibition, % (concentration not given with the values). hit rate 0.33% among 330,000;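 active = z-score of -3 or lower and OD600 up to 0.18 on both plates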;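 note: plate controls were untreated cells for no effect and reference antibiotic for full effect; stock transfer was 100 nL into about 80 µL; one replicate is shown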
Autofluor counter: flagged as autofluorescent in microsphere protease counterscreen; compound autofluorescence counterscreen, microsphere flow cytometry; stronger effect = higher value; fluorescence intensity (concentration not given with the values); hit rate 3.1% among 360,000;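 active = at least 3 SD above the mean of all compounds, about 16000 in these data; inconclusive = too few beads counted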;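 note: 100 nL of 1 mM stock went into each well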
PrP 5UTR inh: inhibition of PrP 5' UTR reporter expression; cell-based PrP 5' UTR mRNA reporter, plate reader; inhibition, % (no concentration beside the values); hit rate 0.35% among 340,000;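 active = every replicate at 50% or more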;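 note: 0 = median of the neutral control wells; tested in H4 reporter cells; numbers are from one replicate; inactives centre near -14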
Mtb hypoxia rep growth: further read-out of Mtb hypoxia rep, marked with its call; growth inhibition, %; measured here: M. tuberculosis growth (absorbance);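 0% = vehicle and 100% = reference antibiotic; read after six days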
The depositor's hits bear a star; u = inconclusive; x = not tested or not shown.

| Compound | BJeLR viability | Mtb hypoxia rep | Mtb hypoxia rep growth | Sa ugtP lethal | Sa RN4220 lethal | Autofluor counter | PrP 5UTR inh |
| --- | --- | --- | --- | --- | --- | --- | --- |
| CCOC(=O)C1=C(C)C(c2ccccc2OC)NC(=S)N1 (stereo unspecified) | -1 | 2 | 0 | 0 | -1.5 | 3459 | -24 |
| CC(=NNc1cc(-c2ccccc2)nc(-c2ccc(Br)cc2)n1)c1cccc(N)c1 | x | -2 | 1 | 22 | 0.8 | x | x |
| O=C1CN(C(=S)Nc2ccc(OC(F)F)cc2)CCN1 | -10 | 3 | 7 | 7 | 7.3 | 5089 | -13 |
| Cc1ccc(NC(=O)CN2C(=O)N/C(=C/c3ccc4c(c3)OCCO4)C2=O)cc1 | -1 | -3 | -12 | -1 | 5.8 | 4838 | -1 |
| CCOc1cc(/C=C(/C#N)C(=O)Nc2ccc(O)cc2)cc(Br)c1O | 29 | 3 | 10 | -19 | 1.6 | 3611 | -46 |
| COc1cccc(NC(=O)CN(C)C(=O)c2cc(-c3ccco3)nc3ccccc23)c1 | -6 | 6 | 6 | -4 | 0.5 | 4886 | -19 |
| CC(=O)N[C@@H](Cc1c[nH]c2ccccc12)C(=O)NCCc1ccc(S(N)(=O)=O)cc1 | -4 | 10 | 0 | 14 | -0.7 | 3857 | -13 |
| CCOC(=O)c1c(C)[nH]c(C)c1C(=O)COC(=O)c1ccc(OC)cc1 | -9 | 4 | 10 | -5 | 5.8 | 4229 | -11 |
| CCOC(=O)c1cnc(SCC(=O)N2CCc3ccccc32)nc1N | -3 | 10 | 22 | 3 | 2.5 | 8550 | -13 |
| CCCN(CCC)CCSc1nc(O)c(C(C)C)c(=O)[nH]1 | -2 | 0 | 8 | -1 | 7.0 | 18038* | -7 |
| CCOc1ccc(-c2n[nH]c(=S)c3ccccc23)cc1 | 5 | 2 | 9 | 12 | 2.2 | 3427 | -14 |
| CCOc1ccc(NC(=O)COC(=O)c2c(OC)cccc2OC)cc1 | -1 | 5 | -8 | 3 | 5.1 | 2553 | -18 |
| Cc1cccc(N(CC(N)=O)C2SC(=O)NC2=O)c1 (stereo unspecified) | 1 | 8 | 6 | 2 | 5.6 | 2914 | -21 |
| CCOc1c(C)cc(S(=O)(=O)NCc2cccnc2)c(C)c1C | -4 | 5 | 2 | 11 | 5.2 | 3503 | -20 |
| Cc1ccc(-n2nc3cc(C)c(N)cc3n2)cc1 | -7 | 3 | -1 | -4 | -7.6 | 2968 | -13 |
| O=c1[nH]cc(N2CCCCCC2)c(=O)[nH]1 | 3 | 9 | 15 | 2 | 1.6 | 4323 | -5 |
| CC(=O)N1CC[n+]2c(-c3ccc(Cl)cc3Cl)csc21 | -6 | x | x | x | x | 2141 | -17 |
| CC(=O)Nc1ccc(NC(=O)CS(=O)(=O)Cc2ccccc2)cc1 | 0 | 5 | 9 | 8 | 3.1 | 5560 | -29 |
| O=C(CNC(=O)c1ccc2ccccc2c1)NC1CCCCC1 | x | 2 | 2 | 8 | 6.2 | 4659 | -11 |
| Cc1cc(SCc2ccc(Cl)cc2Cl)nc(=O)[nH]1 | -9 | 4 | -13 | 6 | 4.8 | 4520 | -13 |
| O=C(CN1CCN(C(=O)c2ccco2)CC1)Nc1ccc2c(c1)OCO2 | 0 | 8 | 5 | -1 | 4.7 | 2539 | -13 |
| O=C(CN1CCCC1)NCC(=O)Nc1ccc(F)cc1 | 4 | 3 | 16 | 0 | 0.7 | 3331 | -19 |
| CCO[C@H]1OC(C(=O)N2CCOCC2)=C[C@@H](C2CC2)[C@@H]1CCCO | 2 | x | x | x | x | 4037 | -17 |
| Cc1cc(S(=O)(=O)N2CCOCC2)ccc1OCC(=O)Nc1ccccc1F | 2 | 5 | 2 | -1 | 3.6 | 3864 | -13 |
| FC(F)(F)c1ccccc1CNCc1ccncc1 | -9 | 6 | 2 | 9 | 0.3 | 3642 | -11 |
| CCCCc1nc2cc(C(=O)N3CCN(c4nc(C)cnc4C)CC3)ccc2o1 | 10 | 7 | -3 | 4 | 5.5 | 5593 | -4 |
| CCc1c(C)sc(NC(=O)Cn2nc(C(F)(F)F)c3c2CCCC3)c1C#N | 0 | 11 | 8 | -18 | 3.9 | 22610* | -13 |
| CC1CCCCC1NC(=O)COc1ccc(C#N)cc1 (stereo unspecified) | x | -9 | 3 | -2 | -3.2 | 3815 | 2 |
| CCCOc1ccc(C2C(C(=O)OC)=C(C)N=C3SCCC(=O)N32)cc1OCC (stereo unspecified) | 1 | 4 | 6 | -5 | 1.8 | 3280 | -21 |
| c1ccc(SSc2ccccn2)nc1 | -7 | 9 | -3 | 12 | -4.3 | 3990 | -13 |

Quoted at random: 2 records from the list
| Compound | BJeLR viability | Mtb hypoxia rep | Mtb hypoxia rep growth | Sa ugtP lethal | Sa RN4220 lethal | Autofluor counter | PrP 5UTR inh |
| --- | --- | --- | --- | --- | --- | --- | --- |
| Cc1ccc(NC(=O)CN2C(=O)N/C(=C/c3ccc4c(c3)OCCO4)C2=O)cc1 | -1 | -3 | -12 | -1 | 5.8 | 4838 | -1 |
| CCOC(=O)c1c(C)[nH]c(C)c1C(=O)COC(=O)c1ccc(OC)cc1 | -9 | 4 | 10 | -5 | 5.8 | 4229 | -11 |

Returning to the listing with the 4 entries that preceded the break.
| Compound | BJeLR viability | Mtb hypoxia rep | Mtb hypoxia rep growth | Sa ugtP lethal | Sa RN4220 lethal | Autofluor counter | PrP 5UTR inh |
| --- | --- | --- | --- | --- | --- | --- | --- |
| CCc1c(C)sc(NC(=O)Cn2nc(C(F)(F)F)c3c2CCCC3)c1C#N | 0 | 11 | 8 | -18 | 3.9 | 22610* | -13 |
| CC1CCCCC1NC(=O)COc1ccc(C#N)cc1 (stereo unspecified) | x | -9 | 3 | -2 | -3.2 | 3815 | 2 |
| CCCOc1ccc(C2C(C(=O)OC)=C(C)N=C3SCCC(=O)N32)cc1OCC (stereo unspecified) | 1 | 4 | 6 | -5 | 1.8 | 3280 | -21 |
| c1ccc(SSc2ccccn2)nc1 | -7 | 9 | -3 | 12 | -4.3 | 3990 | -13 |
| O=C(CN(C(=O)c1csnn1)c1ccccc1F)NCc1ccccc1 | -1 | -5 | 2 | 9 | 1.3 | 3918 | -3 |
| CCC1CCCCN1CCCCOc1cccc(Cl)c1 (stereo unspecified) | -1 | 9 | 10 | 4 | -5.2 | 3317 | -21 |
| Cc1ccc2[nH]c3c(c2c1)CCCC3C(N)=O (stereo unspecified) | 8 | 7 | 10 | -5 | 3.3 | 1940 | -8 |
| COC(=O)c1ccc(COc2ccc(C(C)(C)C)cc2)o1 | -6 | 6 | -6 | 32 | 11 | 3047 | x |
| CCOc1ccccc1NC(=O)c1cc(-c2ccccn2)nc2ccccc12 | x | 2 | 2 | -2 | 3.4 | 6368 | -8 |
| CCC(CC)COC(=O)C1=C(C)NC(=O)NC1c1ccc2c(c1)OCO2 (stereo unspecified) | 11 | 4 | 2 | -4 | 5.0 | 3711 | -18 |
| COc1ccccc1Nc1ncnc2nc[nH]c12 | -1 | 5 | 8 | 5 | 2.1 | 3704 | 2 |
| COC(=O)C1CCN(Cc2cn(-c3ccccc3)nc2-c2ccc3c(c2)OCO3)CC1 | 6 | -5 | -10 | 3 | 6.7 | 4192 | -6 |
| Cc1ccc(CN2C(=O)CN=C(c3ccccc3)c3ccccc32)cc1 | -7 | 9 | 10 | 2 | 5.5 | 2386 | -16 |
| Cc1onc(-c2ccccc2)c1C(=O)NCC1CCCO1 (stereo unspecified) | 3 | 4 | 1 | 14 | 11 | 3367 | -11 |
| COCCCN1C(=O)C(=O)/C(=C(/O)c2ccc(OCC(C)C)cc2C)C1c1cccnc1 (stereo unspecified) | 3 | 17 | 10 | -3 | 3.3 | 9823 | -26 |
| CC(C)(C)C1(O)CC(C(F)(F)F)=NN1C(=O)Cc1ccc([N+](=O)[O-])cc1 (stereo unspecified) | 2 | 1 | 6 | -14 | 11 | 4135 | -8 |
| Cc1ccc(C)c(NC(=S)NN=C2CCc3ccccc32)c1 | x | -3 | -9 | 0 | 6.5 | x | x |
| COc1ccc(-c2noc(CCC(=O)NCCCN3CCC(C)CC3)n2)cc1 | 2 | x | x | 12 | 0.2 | 6497 | -17 |
| CCCCN1C(=O)c2ccc(C(=O)OCC(=O)N3CCN(c4ccccc4)CC3)cc2C1=O | x | 7 | -7 | 3 | 2.7 | 9014 | -26 |
| Cc1ccc(NC(=O)CN(C)C(=O)CSc2nnc(N)s2)cc1 | x | 10 | -2 | 1 | 0.1 | 3951 | -7 |
| O=C(CSc1nnc(-c2cccc(F)c2)o1)N1CCCC1 | -2 | x | x | 5 | 1.2 | 5436 | -39 |
| CCCCC(=O)Nc1cccc(NC(=O)c2cccnc2Cl)c1 | -11 | 8 | 16 | 3 | 6.3 | 3818 | -17 |
| O=S(=O)(Nc1nccs1)c1ccc2c(c1)OCCO2 | -7 | -10 | 2 | -8 | -0.8 | 9381 | -13 |
| Cc1ccccc1OCCC(=O)Nc1ccc(F)c(Cl)c1 | 0 | 4 | 4 | -38 | -4.5 | 2453 | -14 |
| CCn1c(O)c(N=NC(=O)Cc2csc(N3CCOCC3)n2)c2ccccc21 | 1 | 9 | 7 | 5 | 9.0 | 3116 | -13 |
| Cc1c(C(=O)O)[nH]c2c1C(=O)CC(c1ccc(Cl)cc1)C2 (stereo unspecified) | 3 | 9 | 0 | 10 | 1.7 | 10862 | -14 |
| CN(CC(=O)Nc1ccc(F)c(Cl)c1)S(=O)(=O)c1cccc2nsnc12 | -12 | 1 | 3 | -16 | -7.1 | 3178 | -14 |
| CC(C)CNC(=O)c1cccc(NC(=O)CCc2ccccc2)c1 | -6 | 10 | 0 | -5 | 3.7 | 2041 | -19 |
| COc1ccc(-c2nnn(CCc3nn[nH]n3)n2)cc1 | 1 | x | x | 3 | 0.3 | 2461 | -13 |
| CC1CCC(N2CCN(S(C)(=O)=O)CC2)CC1 (stereo unspecified) | -7 | 12 | -4 | 4 | 3.3 | u | -25 |
| Cc1coc2cc3oc(=O)cc(C)c3cc12 | -2 | x | x | x | x | 7288 | -21 |
| CCN(Cc1ccccc1)S(=O)(=O)c1ccc(C(=O)N(CCCN(C)C)c2nc3cc4c(cc3s2)OCO4)cc1 | 3 | 2 | 11 | -5 | 0.2 | 7283 | 0 |
| Cc1ccc(C2(C)NC(=O)N(CC(=O)c3ccc(Cl)s3)C2=O)cc1 (stereo unspecified) | -3 | 1 | 5 | 0 | 3.2 | 2795 | -8 |
| CCOc1ccc(S(=O)(=O)NCCC(=O)N2CCN(Cc3ccccc3)CC2)cc1 | 4 | 2 | 5 | 7 | 4.2 | 7163 | -7 |

Some of the entries so far, with each value named:
CN(CC(=O)Nc1ccc(F)c(Cl)c1)S(=O)(=O)c1cccc2nsnc12
  BJeLR viability: -12 | Mtb hypoxia rep: 1 | Mtb hypoxia rep growth: 3 | Sa ugtP lethal: -16 | Sa RN4220 lethal: -7.1 | Autofluor counter: 3178 | PrP 5UTR inh: -14
CC(C)CNC(=O)c1cccc(NC(=O)CCc2ccccc2)c1
  BJeLR viability: -6 | Mtb hypoxia rep: 10 | Mtb hypoxia rep growth: 0 | Sa ugtP lethal: -5 | Sa RN4220 lethal: 3.7 | Autofluor counter: 2041 | PrP 5UTR inh: -19
COc1ccc(-c2nnn(CCc3nn[nH]n3)n2)cc1
  BJeLR viability: 1 | Mtb hypoxia rep: x | Mtb hypoxia rep growth: x | Sa ugtP lethal: 3 | Sa RN4220 lethal: 0.3 | Autofluor counter: 2461 | PrP 5UTR inh: -13
CC1CCC(N2CCN(S(C)(=O)=O)CC2)CC1 (stereo unspecified)
  BJeLR viability: -7 | Mtb hypoxia rep: 12 | Mtb hypoxia rep growth: -4 | Sa ugtP lethal: 4 | Sa RN4220 lethal: 3.3 | Autofluor counter: u | PrP 5UTR inh: -25

Structural class, the entries above containing bromine
| Compound | BJeLR viability | Mtb hypoxia rep | Mtb hypoxia rep growth | Sa ugtP lethal | Sa RN4220 lethal | Autofluor counter | PrP 5UTR inh |
| --- | --- | --- | --- | --- | --- | --- | --- |
| CC(=NNc1cc(-c2ccccc2)nc(-c2ccc(Br)cc2)n1)c1cccc(N)c1 | x | -2 | 1 | 22 | 0.8 | x | x |
| CCOc1cc(/C=C(/C#N)C(=O)Nc2ccc(O)cc2)cc(Br)c1O | 29 | 3 | 10 | -19 | 1.6 | 3611 | -46 |

Compounds as they come, and some 4% of all compounds hit somewhere here.
